Screening results as filed in PubChem BioAssay.
E coli growth = blocks Escherichia coli growth. OD600, 23 h; hits give low values. OD600 absorbance (test concentration not listed). 330,000 tested, 0.21% active;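 active = OD600 absorbance below the run mean of sample wells minus 3.6 SD, in any replicate, cut at about 0.56 in these data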;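 also: stock transfer was 300 nL into about 60 µL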
T cruzi inh = T. cruzi replication inhibition. T. cruzi beta-gal in NIH3T3, luminescence, 90 h. inhibition, % (no concentration beside the values). 300,000 tested, 1.4% active;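 active = mean inhibition across valid replicates above about 55%, limit read from the data; inconclusive = mean below that limit but half or more replicates reach it; inactive = mean below it, under half of replicates reach it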;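 also: signal also drops with host cell toxicity which is not excluded here; 0% = plate median of DMSO wells and 100% = zero luminescence signal; higher percent means less beta-gal luminescence so fewer parasites; stock transfer was 50 nL into about 50 µL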
FGF22 binding = FGF22 (human) thermal shift binding | recombinant FGF22 thermal shift, SYPRO orange fluorescence; percent of sucrose octasulfate shift, DMSO zero | 340,000 tested, 1.5% active | calls only at 9.99 µM | AID 651658;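 active = melting point raised past a set limit in the mean and every replicate; inconclusive = no clear call; three in four hits are not shown here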
Target sequence (Q9HCT0 whole entry, looked up): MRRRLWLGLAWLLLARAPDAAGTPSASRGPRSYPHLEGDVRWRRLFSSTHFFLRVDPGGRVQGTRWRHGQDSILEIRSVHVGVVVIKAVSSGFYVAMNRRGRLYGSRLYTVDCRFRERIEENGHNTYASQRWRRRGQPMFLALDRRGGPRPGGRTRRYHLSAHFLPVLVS
Bfl-1 A1 inh = inhibitors of the anti-apoptotic protein A1, read as caspase activation; MEF A1-2A-BIM cells, Caspase-Glo 3/7 luminescence, 3 h; percent of clofoctol response, vehicle zero; caspase activation, % (no concentration beside the values); 330,000 tested, 0.066% active; AID 2462;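 active = over half of replicate activation scores above 10%, or exactly half above 10 with the replicate mean above 10; inconclusive = replicate mean below 10 yet half the replicates above 10; inactive = over half of replicates below 10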;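 also: wells of about 30 µL received 50 nL stock; many hits fall short of the cut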
MLL AF4-AF9 inh = MLL-AF4/AF9 protein interaction inhibition; 350,000 tested, 0.47% active; AlphaScreen, biotin-AF4 peptide binding to FLAG-AF9; inhibition, % at 10 µM; AID 651704;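 active = every replicate reaching a set inhibition limit, whatever the replicate mean, cut at about 25% in these data; inconclusive = mean inhibition reaches that limit but some replicates miss it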;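 also: 0% = plate neutral control median and 100% = total signal loss; the record names both 10 and 1 µM as test concentration; the first replicate is given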
Target sequence (P42568 whole entry, looked up): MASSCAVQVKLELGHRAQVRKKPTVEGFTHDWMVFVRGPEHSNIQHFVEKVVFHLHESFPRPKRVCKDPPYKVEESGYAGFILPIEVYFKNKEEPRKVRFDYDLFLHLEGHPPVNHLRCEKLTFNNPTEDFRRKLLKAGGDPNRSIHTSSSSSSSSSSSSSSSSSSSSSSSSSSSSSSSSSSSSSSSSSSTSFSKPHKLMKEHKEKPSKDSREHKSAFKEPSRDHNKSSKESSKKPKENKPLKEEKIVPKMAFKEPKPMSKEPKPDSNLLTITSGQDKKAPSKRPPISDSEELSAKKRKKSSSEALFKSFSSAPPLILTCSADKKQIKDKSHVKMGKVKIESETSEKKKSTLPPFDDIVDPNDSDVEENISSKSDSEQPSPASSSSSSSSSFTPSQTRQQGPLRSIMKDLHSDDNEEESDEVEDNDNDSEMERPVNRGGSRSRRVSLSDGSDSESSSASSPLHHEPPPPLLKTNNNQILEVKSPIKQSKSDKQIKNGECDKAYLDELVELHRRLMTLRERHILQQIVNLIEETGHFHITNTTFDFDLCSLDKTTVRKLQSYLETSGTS
Beta apoptosis = blocks beta cell apoptosis; protection from apoptosis, % (no concentration beside the values); 300,000 tested, 0.8% active; INS-1E cytokine-induced death, ATP luminescence, 48 h; percent of positive-control rescue, neutral wells zero;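 active = all replicates at 75% or more, or half of them and the mean; inconclusive = half reach 75% but not the mean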;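 also: 0% = cytokine-treated negative control wells and 100% = positive control rescue; higher means more ATP so stronger rescue from cytokine killing; wells of about 40 µL received 100 nL stock; the first replicate is given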
Ecoli rRNA inh = inhibits bacterial ribosomal RNA function over humanized ribosomes | E. coli WT GFP vs humanized-ribosome RFP mutants, fluorescence, 24 h; hits give low values; DMSO median 0, no signal -100 | GFP signal change (wild-type ribosome), % (concentration not given with the values) | 350,000 tested, 1.6% active | AID 720706;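 active = significant combined selectivity score with lowered wild-type GFP, culture density cut under 30%, mutant RFP and density less affected; inactive = any of these conditions unmet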; also: one replicate is shown; some compounds called inactive have numbers as strong as hits
UCH37 inh = inhibitors of human deubiquitinating enzyme UCH37; inhibition, % (no concentration beside the values); 330,000 tested, 0.33% active; AID 588478; Q9Y5K5; purified proteasome/UCH37, Ub-AMC cleavage fluorescence;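 active = mean of two replicates above 20%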;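 also: 0% = compound-free wells with enzyme and 100% = wells lacking proteasome; stock transfer was 100 nL into about 20 µL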
Target sequence (Q9Y5K5 whole entry, looked up): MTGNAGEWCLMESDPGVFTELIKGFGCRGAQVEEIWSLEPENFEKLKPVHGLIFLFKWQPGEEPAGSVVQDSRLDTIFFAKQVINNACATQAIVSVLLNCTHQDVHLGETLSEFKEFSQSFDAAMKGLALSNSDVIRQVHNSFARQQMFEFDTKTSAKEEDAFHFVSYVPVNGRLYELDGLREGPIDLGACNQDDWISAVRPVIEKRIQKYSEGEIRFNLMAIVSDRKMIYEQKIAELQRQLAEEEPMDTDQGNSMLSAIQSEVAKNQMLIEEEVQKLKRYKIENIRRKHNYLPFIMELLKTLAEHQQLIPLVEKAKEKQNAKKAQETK
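Signal – fluorescence, ex 355 nm, em 460 nm · System – Proteasome-bound UCH37 · Input – 0.15 nM proteasome as dispensed · Timing – 30 min preincubation with enzyme, 25 min cleavage at room temperature · Read-out basis – percent inhibition of cleavage signal versus uninhibited and no-proteasome wells · Medium – Tris-HCl pH 7.4 with ATP-MgCl2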
Ecoli rRNA inh OD600 = further read-out of Ecoli rRNA inh, marked with its call; OD600 change, %; measured here: OD600 growth;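 optical density of the mix in the first replicate; 0 = DMSO median and -100 = no signal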
Ecoli rRNA inh RFP = further read-out of Ecoli rRNA inh, marked with its call; RFP signal change, %; measured here: RFP humanized mutant strains;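 first replicate; 0 = DMSO median and -100 = no signal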
An asterisk follows results filed as active; i = inactive; ? = inconclusive; . = not tested or not shown; & = joins results of further samples. These rows are one share of the data, so the mix of outcomes need not match the whole.

SMILES	E coli growth	T cruzi inh	FGF22 binding	Bfl-1 A1 inh	MLL AF4-AF9 inh	Beta apoptosis	Ecoli rRNA inh	Ecoli rRNA inh OD600	Ecoli rRNA inh RFP	UCH37 inh
Cc1ccc(-c2nnn(CC(=O)Nc3cccc4cccnc34)n2)o1	0.733	.	.	-0.3	.	-2.6	.	.	.	4.1
Cc1ccc(S(=O)(=O)N2CCCC2C(=O)Nc2cc(C)on2)cc1 (stereo not given)	0.651	4.0	.	0.0	.	0.8	.	.	.	1.9
O=C(COC(=O)C12CC3CC(CC(C3)C1)C2)Nc1ccc2[nH]c(=O)[nH]c2c1	0.706	-1.8	.	1.4	.	-5.2	.	.	.	-1.9
CC(=O)Nc1ccc(/C(C)=N/NC(=O)c2ccc(COc3ccccc3Cl)o2)cc1	.	5.4	i	-0.3	0.5	3.3	-29.9*	-21.1*	-2.3*	.
Cc1ccc(NC(=O)NCc2ccccn2)cc1Cl	0.707	6.9	i	0.0	-1.7	-2.6	-13.7	-8.9	-1.8	5.2
COc1ccc(NC(=O)C(=O)NNC(=O)COc2ccc(OC)cc2)cc1	0.659	-19.9	i	-0.2	-4.8	-2.7	8.8	21.0	0.9	1.5
Cc1cc(SCc2ccc(F)cc2)nc(=O)[nH]1	0.718	-14.0	i	0.6	-0.8	-2.2	5.4	6.0	0.7	2.7
CN(C)S(=O)(=O)N1CCN(c2cccc(Cl)c2)CC1	0.668	-7.5	.	-0.2	.	-0.3	.	.	.	3.9
Cc1c(Cc2ccccc2)c(=O)n2c([nH]c3ccccc32)c1C#N	0.671	4.7	i	-0.5	8.6	53.4	-16.6	-17.8	3.3	-68.5
CC(=O)N1CCN(C(=O)/C(C#N)=C/c2ccc3c(c2)OCO3)CC1	0.7	-4.9	i	-0.1	-1.2	-0.9	7.0	6.1	-0.7	2.1
CCOCCCn1c(C)nc2c(c1=O)c1nc3ccccc3nc1n2-c1ccc(C)cc1	0.709	-10.4	i	0.2	-1.6	3.1	13.2	11.7	0.6	-21.0
O=C(OCC(=O)c1ccc(Cl)s1)c1cnccn1	0.685	-13.0	i	-0.6	-2.1	-5.9	7.2	10.0	3.0	3.4
CN(c1ccc(C(=O)NC2CCCCC2)cc1)S(=O)(=O)c1ccccc1	0.679	-3.6	i	0.9	1.2	6.1	7.4	6.4	1.7	2.4
Cc1cc(F)ccc1S(=O)(=O)Nc1ncnc2sc3c(c12)CCC3	0.66	-13.6	i	0.1	-5.2	7.6	-16.8	-40.8	-8.7	-1.2
CCCCN(C)C(=O)c1nc2ccccn2c1CN1CCN(c2cnccn2)CC1	0.663	-1.2	i	0.0	5.4	2.7	6.2	8.9	-0.5	2.5
CCN(CC)c1ccc(C=C(c2nnnn2-c2ccccc2)c2nnnn2-c2ccccc2)cc1	0.746	22.2	.	-0.1	.	13.3	.	.	.	1.6
CCCOc1ccc(N2C(=O)CC(N(Cc3ccco3)C(=O)CC)C2=O)cc1 (stereo not given)	0.639	-11.9	i	-0.4	1.4	-1.9	5.4	7.2	-1.2	4.3
C/C(=C\c1ccccc1)C(=O)N1CCN(Cc2ccc3c(c2)OCO3)CC1	0.69	14.0	i	0.4	5.9	0.2	-8.1	-4.3	7.3	3.8
O=C(Cn1c(CO)nc2ccccc21)NC1CCCCCC1	0.701	-15.5	.	-0.5	.	-1.0	.	.	.	0.7
CCOC(=O)C1CCN(Cc2c(O)ccc3ccccc23)CC1	0.7	-11.7	.	1.2	.	-2.2	.	.	.	-24.8
CCCCNC(=O)CSc1nnc(-c2cccc(S(=O)(=O)N3CCOCC3)c2)o1	0.704	.	i	.	-0.1	.	7.6	20.1	0.5	-2.5
CC(=O)c1cccc(NC(=O)COC(=O)CCC(=O)c2cccs2)c1	0.672	.	i	.	-1.5	.	1.5	-8.5	0.7	-2.5
Cc1ccc(OCC(=O)OC2CCCN(C)C2)cc1 (stereo not given)	0.692	-9.6	i	-0.4	-2.2	-2.8	4.8	2.3	2.1	-2.4
COc1ccc(-c2cn[nH]c2-c2ccc(OCc3ccc(F)cc3)cc2O)cc1OC	0.693	52.7	i	0.6	3.5	26.2	-13.6	-19.6	-13.3	7.7
CCC(=O)c1ccc(OCC(=O)OCC(=O)NCCC2=CCCCC2)cc1	0.655	-7.0	i	-1.3	-3.0	-3.3	9.7	12.3	-1.0	6.7

Overlap with the part before: 2 entries, then new ones.
SMILES	E coli growth	T cruzi inh	FGF22 binding	Bfl-1 A1 inh	MLL AF4-AF9 inh	Beta apoptosis	Ecoli rRNA inh	Ecoli rRNA inh OD600	Ecoli rRNA inh RFP	UCH37 inh
COc1ccc(-c2cn[nH]c2-c2ccc(OCc3ccc(F)cc3)cc2O)cc1OC	0.693	52.7	i	0.6	3.5	26.2	-13.6	-19.6	-13.3	7.7
CCC(=O)c1ccc(OCC(=O)OCC(=O)NCCC2=CCCCC2)cc1	0.655	-7.0	i	-1.3	-3.0	-3.3	9.7	12.3	-1.0	6.7
Cc1ccc(S(=O)(=O)CCC(=O)OCC(=O)NCCc2ccc(F)cc2)cc1	0.685	-10.0	i	-0.6	?	-5.8	3.0	4.4	1.4	3.6
CC(=O)NC(Cc1ccc(F)cc1)C(=O)NC1CCN(C(=O)Nc2ccc(F)cc2)CC1 (stereo not given)	0.704	-6.0	i	-0.6	-20.6	-3.4	5.1	14.8	-0.7	8.4
Cc1ccc2[nH]c(=S)cc(C)c2c1	0.677	-6.5	.	0.4	.	-0.9	.	.	.	2.9
O=C(NC1c2ccccc2-c2ccccc21)c1ccccc1	0.765	-12.6	i	-0.9	-6.7	-9.1	5.2	6.5	-1.6	2.2
COc1ccc(NC(=O)C2=CN3CCS(=O)(=O)N=C3C=C2)c(OC)c1	0.717	.	i	-0.5	1.9	-3.0	13.4	13.3	-1.0	-0.8
CC1CCC(NC(=O)C(C)N2C(=O)C3CCCCC3C2=O)CC1 (stereo not given)	0.689	.	i	0.0	-2.4	-4.0	.	.	.	0.2
O=C(NCCC1CCCCN1S(=O)(=O)c1ccccc1)C(=O)NCc1ccccc1F (stereo not given)	0.677	12.2	i	0.7	-3.8	.	3.2	2.6	-0.7	0.4
Cc1nc(N)sc1C(=O)Nc1ccccc1	0.732	-25.1	.	0.0	.	5.5	.	.	.	0.4
COc1ccc(/C=N/NC(=O)c2cc(C)oc2C)cc1OC	.	-19.9	i	-1.2	-2.3	1.1	9.1	7.6	0.3	.
CC(=O)c1cccc(S(=O)(=O)N2CCC(C(=O)Nc3cccc(C(=O)NC4CC4)c3)CC2)c1	0.703	.	i	0.7	-1.2	4.9	2.3	7.3	2.2	-3.1
Cc1ccc(C)c(NC(=O)CN(C)C(=O)c2cc(C3CC3)nn2-c2ccccc2)c1	0.704	.	i	-0.7	1.4	-7.1	-50.8	-69.0	0.2	2.7
CC(C)(C)n1nnnc1C(c1ccccn1)N1CCN(C(c2ccccc2)c2ccccc2)CC1 (stereo not given)	0.677	31.7	i	0.0	-1.5	5.5	10.8	8.8	-1.3	0.5
CCc1nnc(NS(=O)(=O)c2ccc(NC(=O)c3cc(Cl)ccc3OC)cc2)s1	0.673	9.8	.	-0.2	0.1	0.5	-50.0	-74.8	-25.7	0.0
O=C(Nc1ccccc1)/C(=C\c1ccc2c(c1)OCO2)NC(=O)c1ccco1	0.666	10.8	i	0.5	3.1	-8.9	13.8	4.2	-0.5	-2.7
COc1cc(C(=O)Nn2cnnc2)ccc1OC(F)F	0.678	3.3	i	-0.3	-1.3	-9.1	7.5	10.5	-0.6	0.8
COc1ccc(CCNC(=S)NC(=O)/C=C/c2ccc(C)cc2)cc1OC	0.712	-22.4	.	0.0	6.0	-2.9	.	.	.	1.5
O=C(COC(=O)CNS(=O)(=O)c1cccc(Br)c1)Nc1ccccc1Sc1ccccc1	0.731	6.0	i	1.0	3.5	-4.0	-0.8	-2.4	-2.8	4.3
CS(=O)(=O)c1cccc(NC(=O)CSc2nnc3n2CCCCC3)c1	0.688	.	i	0.2	3.0	-6.3	2.0	20.2	-1.5	1.4
C/C(=N\NC(=O)c1cc(-c2ccncc2)nc2ccccc12)c1ccc(OC(F)F)cc1	.	38.9	i	0.3	-1.4	4.7	-11.0	-16.7	-3.5	.
COc1cccc(-n2cnc3c(sc4nc(N5CCOCC5)c5c(c43)CCCC5)c2=O)c1	0.743	52.4	i	-0.6	2.9	4.9	0.7	-8.5	10.0	-20.3
COc1ccc2c(c1)c(C(=O)O)c(C)n2-c1ccc(Cl)cc1	0.615	-0.4	i	-0.5	-0.1	-1.9	10.2	16.6	16.1	-0.1
COc1ccccc1N1CCN(C(=O)c2cccc(NC3=NC4CS(=O)(=O)CC4S3)c2)CC1 (stereo not given)	0.706	-0.1	i	0.8	-1.9	0.5	4.3	-1.3	-5.2	1.6
CCOC(=O)c1noc(C)c1C(=O)Nc1nccs1	0.715	-5.5	i	0.4	-1.6	.	7.5	15.1	-3.3	3.0
CC(=O)Oc1ccccc1-c1nc(C)nc(N(C)C(C)=O)n1	0.725	-5.4	.	0.1	.	-4.3	.	.	.	6.4
Cc1ccc(-n2c(=O)c3ccccc3n(CC(=O)NCc3ccco3)c2=O)cc1	0.692	-10.1	i	0.2	-2.9	-3.6	13.2	3.7	-7.2	3.3
Going on with the list.
SMILES	E coli growth	T cruzi inh	FGF22 binding	Bfl-1 A1 inh	MLL AF4-AF9 inh	Beta apoptosis	Ecoli rRNA inh	Ecoli rRNA inh OD600	Ecoli rRNA inh RFP	UCH37 inh
Cc1oc2cc(O)ccc2c(=O)c1Oc1ccccc1Br	0.695	-11.5	i	1.6	1.9&-1.3	.	-13.2	-3.4	7.7	-224.4
Cc1sc(NC(=O)C2CCCO2)c(C#N)c1C (stereo not given)	0.653	12.8	i	0.6	10.6	2.0	12.2	0.1	-6.9	2.8
Cc1ccc(C(c2nnnn2CS(=O)(=O)c2ccc(C)cc2)N2CCCC2)cc1 (stereo not given)	0.684	13.0	.	-1.3	0.7	8.5	11.1	3.0	3.5	4.5
COc1ccc(OCC(=O)N(Cc2cccs2)C2CCS(=O)(=O)C2)cc1 (stereo not given)	0.725	-4.8	i	-1.4	0.3	-3.2	7.8	6.9	2.8	0.5
CCNC(=O)Nc1ccc(-n2nc(C)c(C(=O)OCC)c2C)nc1	0.627	5.9	i	0.3	-1.0	0.5	6.9	4.0	2.2	-1.8
N/C(=N\OC(=O)c1cccs1)c1cccnc1	0.665	7.6	i	-5.5	-2.3	-4.7	-0.2	-1.3	-1.9	1.6
O=C1NC2CCCCC2C(=O)N1OS(=O)(=O)c1ccccc1 (stereo not given)	0.679	.	i	.	4.1	.	12.6	14.7	-0.8	4.1
O=C(Nc1ccc(Cl)cc1)N1CCCC1	0.673	-10.9	i	0.2	2.6	-7.2	-26.0	5.4	19.7	5.6
CCOC(=O)C1Nc2ccc(C(F)(F)F)cc2C2C=CCC12 (stereo not given)	0.704	4.9	i	?	2.1	2.9	14.0	14.2	6.5	0.4
